# RanGTP-Impb inh – inhibitors of RanGTP-importin-beta interaction, primary screen, biochemical, FRET, CFP-Ran, YFP-importin-beta, homogeneous. cell-free CFP-Ran/YFP-importin-beta FRET ratio. inhibition, % (no concentration beside the values). actives 1.1% (n = 300,000). AID 2216;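 active means most replicates above 15%; inconclusive means exactly half above 15%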;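 further: 0% = DMSO wells and 100% = Ran loaded with GDP instead of GTP; wells of about 40 µL received 100 nL stock; the first replicate is given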
# rRNA inh HTS – inhibitors of bacterial rRNA selective over humanized ribosomes; E. coli WT GFP vs humanized-ribosome RFP mutants, fluorescence, 24 h; stronger effect = lower value; DMSO median 0, no signal -100; GFP signal change (wild-type ribosome), % (test concentration not listed); actives 1.6% (n = 350,000); AID 720706;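 active means significant combined selectivity score with lowered wild-type GFP, culture density cut under 30%, mutant RFP and density less affected; inactive means any of these conditions unmet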; further: one replicate is shown; some compounds called inactive have numbers as strong as hits
# Bfl-1 A1 inh – inhibitors of the anti-apoptotic protein A1, read as caspase activation. caspase activation, % (concentration not given with the values). actives 0.066% (n = 330,000). MEF A1-2A-BIM cells, Caspase-Glo 3/7 luminescence, 3 h; percent of clofoctol response, vehicle zero;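 active means over half of replicate activation scores above 10%, or exactly half above 10 with the replicate mean above 10; inconclusive means replicate mean below 10 yet half the replicates above 10; inactive means over half of replicates below 10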;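 further: wells of about 30 µL received 50 nL stock; many hits fall short of the cut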
# T cruzi inh – T. cruzi replication inhibition; T. cruzi beta-gal in NIH3T3, luminescence, 90 h; inhibition, % (concentration not given with the values); actives 1.4% (n = 300,000); AID 1885;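 active means mean inhibition across valid replicates above about 55%, limit read from the data; inconclusive means mean below that limit but half or more replicates reach it; inactive means mean below it, under half of replicates reach it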;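 further: signal also drops with host cell toxicity which is not excluded here; 0% = plate median of DMSO wells and 100% = zero luminescence signal; higher percent means less beta-gal luminescence so fewer parasites; stock transfer was 50 nL into about 50 µL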
# Vif TR-FRET – inhibitors of Vif binding to APOBEC3G peptide, primary screen, biochemical, TR-FRET, GST-Vif 1-94, biotin-A3G peptide, dose response retest (AID 1117319) | TR-FRET GST-Vif / biotin-A3G peptide binding; higher % means a stronger effect; test concentration not given here; strong numbers were not always called active | actives 0.57% (n = 260,000) | inhibition, %, or IC50 in µM where a hit was titrated;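 active means above the screen mean plus three standard deviations and confirmed in dose response; inconclusive means results disagree or hit not tested in dose response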;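 further: Vif residues 1-94 fused to GST binding biotinylated APOBEC3G peptide 110-148; 0% = full assay without inhibitor and 100% = GST in place of GST-Vif; retest series ran down from 100 µM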
# Beta apoptosis – beta cell apoptosis inhibition; AID 435005; protection from apoptosis, % (no concentration beside the values); INS-1E cytokine-induced death, ATP luminescence, 48 h; percent of positive-control rescue, neutral wells zero; actives 0.8% (n = 300,000);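 active means all replicates at 75% or more, or half of them and the mean; inconclusive means half reach 75% but not the mean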;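 further: 0% = cytokine-treated negative control wells and 100% = positive control rescue; higher means more ATP so stronger rescue from cytokine killing; wells of about 40 µL received 100 nL stock; the first replicate is given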
# MLL AF4-AF9 inh – MLL-AF4/AF9 protein interaction inhibition | actives 0.47% (n = 350,000) | inhibition, % at 10 µM | P42568 | AID 651704 | AlphaScreen, biotin-AF4 peptide binding to FLAG-AF9;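 active means every replicate reaching a set inhibition limit, whatever the replicate mean, cut at about 25% in these data; inconclusive means mean inhibition reaches that limit but some replicates miss it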;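 further: 0% = plate neutral control median and 100% = total signal loss; the record names both 10 and 1 µM as test concentration; the first replicate is given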
# Target sequence (P42568 whole entry, looked up): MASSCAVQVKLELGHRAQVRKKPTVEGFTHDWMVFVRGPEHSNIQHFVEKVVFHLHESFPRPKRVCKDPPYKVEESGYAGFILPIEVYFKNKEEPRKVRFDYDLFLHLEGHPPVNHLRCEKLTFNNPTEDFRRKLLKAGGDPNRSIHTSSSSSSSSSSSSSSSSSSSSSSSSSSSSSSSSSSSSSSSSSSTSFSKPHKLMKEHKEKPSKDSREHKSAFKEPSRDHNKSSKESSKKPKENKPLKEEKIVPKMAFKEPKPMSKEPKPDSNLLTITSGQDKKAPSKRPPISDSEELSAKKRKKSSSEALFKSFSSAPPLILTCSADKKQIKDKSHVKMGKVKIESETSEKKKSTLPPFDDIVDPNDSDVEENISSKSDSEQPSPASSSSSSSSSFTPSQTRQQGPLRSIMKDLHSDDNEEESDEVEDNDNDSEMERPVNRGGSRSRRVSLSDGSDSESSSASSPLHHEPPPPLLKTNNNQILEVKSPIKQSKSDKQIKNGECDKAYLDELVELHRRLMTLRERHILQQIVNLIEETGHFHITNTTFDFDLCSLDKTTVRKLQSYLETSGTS
# Calb FLC – affects C. albicans growth with fluconazole | growth inhibition, % (test concentration not listed) | C. albicans CaCi-2 (fluconazole-resistant clinical isolate) + fluconazole, Alamar Blue growth, 48 h | actives 0.57% (n = 300,000);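 active means most replicates above 75%; inconclusive means exactly half above 75%; inactive means most below 75%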;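 further: all wells also contain fluconazole at 8 µg/ml as a sub-toxic cotreatment; 0% = median of DMSO wells and 100% = median of geldanamycin control wells; wells of about 8 µL received 7.5 nL stock; the first replicate is given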
# rRNA inh HTS OD600 – recorded beside rRNA inh HTS, whose call it bears; OD600 change, %; measured here: OD600 growth;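 optical density of the mix in the first replicate; 0 = DMSO median and -100 = no signal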
# rRNA inh HTS RFP – recorded beside rRNA inh HTS, whose call it bears; RFP signal change, %; measured here: RFP humanized mutant strains;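 first replicate; 0 = DMSO median and -100 = no signal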
# An asterisk follows results filed as active; ? = inconclusive; / = no result given.
SMILES,RanGTP-Impb inh,rRNA inh HTS,rRNA inh HTS OD600,rRNA inh HTS RFP,Bfl-1 A1 inh,T cruzi inh,Vif TR-FRET,Beta apoptosis,MLL AF4-AF9 inh,Calb FLC
CCOc1ccc(C(=O)/C=C/c2cc(OC)c(OC)c(OC)c2)cc1,0.0,-20*,14*,-1.5*,0.5,1,0%,-28,9.1,-3
CCC(C)Nc1nc(-c2c[nH]c3ccccc23)cs1 (centres undefined),-5.8,9,5,2.8,0.9,5,/,0,13,11
CC(=O)Nc1ccc(NC(=O)C(C)OC(=O)CNS(=O)(=O)c2ccc(Br)cc2Cl)cc1 (centres undefined),-4.5,3,-1,2.8,-0.1,-10,9%,-2,-0.4,-3
CCCCc1ccc(NC(=S)NCc2cccs2)cc1,-4.7,/,/,/,0.6,69*,0%,2,/,-26
CC(C)N(Cc1nccn1C)C(=O)c1cc(COc2ccc(F)cc2Cl)on1,4.1,-3,1,0.6,0.3,0,/,-2,1.9,-5
CCNS(=O)(=O)c1ccc(C(=O)OCc2cc(=O)oc3cc(OC)ccc23)cc1,-0.6,-1,3,1.2,0.0,10,/,0,0.1,3
COc1ccc(C(=O)CSc2n[nH]c(N)n2)cc1,1.8,/,/,/,0.2,-1,70%,-2,/,-8
Cc1ccccc1Nc1nnc(SCc2cc(=O)n3ccsc3n2)s1,?,/,/,/,0.1,9,8%,1,/,-4
COc1ccc(S(=O)(=O)N2CCC(C(=O)NCc3ccccc3)CC2)cc1OC,-1.1,15,5,-5.1,-0.2,-10,/,-1,1.4,0
COc1cccc(C(=O)COC(=O)c2cccs2)c1,1.2,-7,-2,-0.1,-5.0,-9,/,-5,-2.7,2
Cc1ccc(N(CC(=O)Nc2ccc(C)cc2C)S(=O)(=O)N2CCCC2)cc1,5.6,/,/,/,0.2,6,-1%,2,/,-12
Cc1ccc(CNC(=O)CCNC(=O)c2ccco2)cc1,4.5,/,/,/,-0.1,-12,-1%,-3,/,-3
CC(C)C(O)(CC#CCN1CCCC1)c1ccccc1 (centres undefined),-2.2,16,13,2.4,-0.6,50,26%,-1,-4.0,-26
CN(C)C(CNC(=O)CSC(=S)N1CCCC1)c1ccccc1 (centres undefined),/,4,7,-3.1,-0.4,/,-6%,-2,-1.0,/
COc1cc2cc(C(=O)N3CCc4ccccc4C3)[nH]c2cc1OC,1.3,0,5,-2.8,-1.8,-3,/,/,-2.3,-3
CC(OC(=O)CNS(=O)(=O)c1ccc2ccccc2c1)C(=O)N(C)c1ccccc1 (centres undefined),-4.5,-22,-30,-0.2,0.6,-9,/,-2,-2.0,16
CC[C@]12c3[nH]c4ccccc4c3CCN1C(=O)C(CC(=O)NCc1ccco1)C[C@@H]2C(=O)N1CCN(C(=O)C2CC2)CC1 (some centres undefined),/,7,15,-1.7,0.8,/,-11%,-3,2.0,/
CC1=CC(C)(C)n2c(O)c(N=N)c3c(C)c(C)cc1c32,-2.6,-12,4,-2.3,0.2,10,-5%,-1,15,3
C=CCc1cccc(CNc2c(C)n(C)n(-c3ccccc3)c2=O)c1O,-2.1,/,/,/,1.1,-17,10%,2,/,?
Oc1cccc2ccc(N3CCOCC3)nc12,-1.3,6,7,2.3,0.5,18,-9%,-9,-0.1,5
Cc1ccc(CS(=O)Cc2ccc(C(=O)N3CCN(c4ccccn4)CC3)o2)cc1 (centres undefined),-2.0,-19,-12,-4.2,-0.5,-4,3%,1,2.8,19
CN(C)S(=O)(=O)N(CC(=O)N1CCN(c2ccccc2F)CC1)c1ccccc1,-3.1,-12,-17,-4.5,-0.3,6,-10%,0,-0.5,13
Cc1nc(N2CCOCC2)nc(OCCN(C)C)c1[N+](=O)[O-],3.0,-3,4,-4.2,0.6,19,/,2,3.1,-22
COc1ccc(-c2csc(NC(=O)C3CC(=O)N(c4ccc5c(c4)OCCO5)C3)n2)cc1 (centres undefined),3.0,/,/,/,0.6,-6,/,-4,/,-14
O=C(CCN1C(=O)c2cccc3cccc(c23)C1=O)Nc1ccccc1,-0.5,/,/,/,-0.2,-5,-6%,-3,-1.0,-12
O=C(Nc1cccc(S(=O)(=O)NCc2ccco2)c1)c1ccc(Cl)cc1,/,-4,9,-1.5,2.1,/,-5%,-2,2.3,/
O=C(Nc1cc(S(=O)(=O)Nc2ccc(Cl)cc2)ccc1O)c1ccc(F)cc1F,/,-17,-1,-2.8,0.1,/,1%,3,0.6,/
CC[C@]1(c2ccccc2OC)C(=O)N(C(=O)OC)N1C(=O)OC,1.8,4,12,4.5,0.3,-36,/,-6,-3.3,1
O=C(CC1C(=O)NCCN1C(=S)Nc1ccccc1)Nc1ccc2c(c1)OCCO2 (centres undefined),-0.2,/,/,/,-0.7,-24,-3%,-8,/,-34
O=C(Cn1c(=O)oc2cc(S(=O)(=O)NCc3ccccc3)ccc21)NCc1ccco1,3.0,2,10,-1.2,1.0,-7,0%,/,0.3,0
O=C(NCc1ccco1)/C(=C/c1cccnc1)NC(=O)c1ccco1,3.8,/,/,/,0.2,0,23%,-1,/,-1
O=C(NCC1CCCO1)C1CCN(C2CCN(C(=O)Cc3ccsc3)CC2)CC1 (centres undefined),6.2,13,6,0.9,-0.1,-1,5%,-3,-2.3,2
CCOc1ccc(/C=N/N2C(=O)C(CC(=O)Nc3ccc(F)cc3F)SC2=NC)cc1OC (centres undefined),7.3,-6,-1,-2.3,?,7,2%,10,5.1,-28
Cc1ccc(C)c(-c2nnc(NC(=O)CS(=O)(=O)c3ccccc3)o2)c1,-0.8,-42,-70,-10,-0.4,23,2%,-3,4.1,6
COc1ccc(CCNC(=O)CCNC(=O)c2ccco2)cc1OC,3.0,-5,-10,10,0.7,-7,/,0,-0.6,4
Cc1c(C(=O)Nc2cccnc2Cl)oc2ccccc12,-1.9,4,12,-0.5,-2.7,-3,/,5,-1.4,2
CC(=O)Oc1ccccc1/C=C1\CCOC1=O,-0.7,11,-1,-1.2,0.6,-17,13%,-2,4.9,-5
Cn1c(Oc2ccc(Cl)cc2)c(C=O)c2ccccc21,1.3,/,/,/,0.0,7,-3%,9,/,20
O=C(N/N=C/c1cc2c(cc1Cl)OCO2)c1cc(-c2ccccc2)n[nH]1,2.4,-24*,-6.5*,-1.5*,0.1,3,8%,0,1.8,4
COc1ccc(C(C)=O)cc1COC(=O)CNC(=O)c1cc(C)cc(C)c1,2.7,1,0,-0.6,1.0,7,/,7,-3.4,20
Cc1c(NC(=O)CN2C(=O)C(=O)N(Cc3ccccc3)C2=O)c(=O)n(-c2ccccc2)n1C,3.7,19,8,2.7,0.3,0,-6%,-1,-0.7,-8
CC(C)Nc1nc(Oc2ccc(=O)n(-c3ccccc3)n2)nc(N(C)C)n1,-1.1,7,7,3.5,0.5,10,8%,-4,1.5,-4
COc1cc(C(=O)NC(c2ccccc2)c2ccccc2)cc(OC)c1C,-0.8,/,/,/,-0.5,-2,-8%,-6,/,0
CCc1c(O)nc(N2CCN(Cc3ccccc3)CC2)[nH]c1=O,-1.7,/,/,/,0.0,-7,79%,/,/,7
CC(=N\O)/C(CN(C)C)=N/O,0.7,/,/,/,-0.3,1,-7%,-8,/,-2
Cc1c([N+](=O)[O-])c2ccc(O)cc2n1-c1ccccc1,9.2,-4,10,4.5,0.3,-3,-1%,-16,6.2,16
Cc1ccc(-c2nc3ncccc3o2)cc1NC(=O)c1ccccc1,3.6,29,10,1.4,0.2,3,3%,0,-0.9,-4
COc1ccc(S(=O)(=O)N2CCN(C(=O)CSC(=S)N3CCCC3)CC2)cc1,/,-5,-6,-5.6,0.9,/,-14%,-5,0.6,/
O=C(c1ccco1)N1CCCN(Cc2nc(Cc3ccccc3)no2)CC1,-6.3,3,1,-0.6,-0.1,-10,3%,1,-12,3
N/C(=N\OC(=O)CC1CCCCC1)c1cccc([N+](=O)[O-])c1,-5.4,/,/,/,-1.2,-2,-7%,3,/,-10
O=C(CN1C(=O)c2ccccc2C1=O)Nc1ccccc1C(F)(F)F,0.4,11,14,-0.1,1.4,-3,/,-9,-2.7,-8
CN1N=C(C(=O)N2CCCC(N3CCN(c4ccc(F)cc4)CC3)C2)CCC1=O (centres undefined),3.4,7,8,1.0,-0.5,-5,0%,-2,0.1,0
CCCc1cc(=O)[nH]c(SCC(=O)N2CCCCCC2)n1,/,1,5,0.9,1.0,/,/,1,-1.4,/
CN(C)C(=O)c1nc2ccc(Cl)cn2c1CNCc1cccc(OC(F)(F)F)c1,-2.6,-5,-5,1.2,-1.3,6,/,-10,-30,-12
CCOc1ccc(CCNC(=O)c2ccc(NC3=NC4CS(=O)(=O)CC4S3)cc2)cc1 (centres undefined),-2.8,2,8,0.3,0.4,14,/,-5,0.8,-2
COc1ccccc1-n1cc(C(=O)NCC(=O)NCc2ccc(F)cc2)c2ccccc2c1=O,3.0,-5,9,2.2,0.3,-6,4%,0,-0.7,-24
COc1ccc(-n2c(=O)c(CCC(=O)N3CCN(c4ccccc4O)CC3)nc3ccccc32)cc1,/,-6,1,0.7,0.2,-2,4%,1,5.1,-1
CCCC(=O)Nc1ccc(S(=O)(=O)Nc2nccs2)cc1,-2.0,-18,-32,-7.2,0.3,-6,/,-2,-5.6,-7
CCCC(=O)c1c[nH]c(C(=O)NCc2cccnc2)c1,-1.1,10,7,0.3,-0.3,-22,2%,-2,-0.5,4
COc1cc(OC)c(CN2CCCCCCC2)cc1Br,4.3,18,9,-0.7,0.2,49,-6%,-7,11,-1
# (cont.)
SMILES,RanGTP-Impb inh,rRNA inh HTS,rRNA inh HTS OD600,rRNA inh HTS RFP,Bfl-1 A1 inh,T cruzi inh,Vif TR-FRET,Beta apoptosis,MLL AF4-AF9 inh,Calb FLC
CCC1CCc2c(sc(NC(=O)C3CC=CCC3C(=O)O)c2C#N)C1 (centres undefined),1.0,-42,-62,-19,1.2,-6,13%,/,1.3,26
Cc1[nH]c(C)c(S(=O)(=O)N2CCCCC2)c1C(=O)N1CCCCC1,3.2,2,10,-2.5,-0.2,-23,-7%,/,0.4,-10
COc1ccc2nc(NC(=O)Cc3cccs3)sc2c1,4.6,/,/,/,-4.0,24,-2%,-2,/,5
CC(C)[C@H](NC(=O)c1ccccc1)C(=O)NC1CCCCCCC1,/,12,18,-0.4,-0.7,/,/,3,0.2,/
CCN(C1CCCCC1)S(=O)(=O)CCNC(=O)c1ccc2c(c1)OCO2,-4.6,-3,-5,0.1,-0.5,3,4%,1,0.6,-6
O=C(O)C1CCCN1S(=O)(=O)c1ccc(Br)cc1 (centres undefined),4.4,4,7,0.0,-0.4,-9,14%,/,-2.3,-9

# These rows are one share of the data. The share of hits here may be higher or lower than overall.
